Compound activity: PubChem, Southern Research Institute
Mtb H37Rv – Confirmatory growth inhibition assay against Mycobacterium tuberculosis H37Rv, potency (AID 1949) | most inactive calls were filed without a number and no value below 0 was filed | inhibition, % at 10 µg/mL, or IC50 in µg/mL where a hit was titrated | actives 1.6% (n = 100,000);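 active = confirmed in a dose series; inconclusive = about 50% or more but not retested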;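 also: bacteria grown 7 days with compound before Alamar blue readout; 0% = untreated bacteria and 100% = reference antibiotic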
* hit, by the source's call; i = inactive; ? = inconclusive. Some of the compounds tested; the hit share may differ from the screen's.

mol | Mtb H37Rv
CC(C)C(=O)NCCc1nc2ccccc2n1CCc1ccccc1 | i
COc1ccc(C(=O)COc2cc(C)cc3oc(=O)cc(-c4ccccc4)c23)cc1 | i
Cc1ccc(S(=O)(=O)N2CCCC2C(=O)Nc2nc3ccccc3s2)cc1 (stereo not given) | i
COc1c2ccccc2nc2ccccc12 | 18.9%
CCC(CC)C(=O)Nc1ccc(Br)cc1C(=O)O | 7.0%
COc1ccc(C2C3C(=O)N(C)C(=O)C3N3C(c4ccc(OC)cc4)C4C(=O)N(C)C(=O)C4N23)cc1 (stereo not given) | 1.2%
COc1ccc(CN2CCC(N3CCCC3)CC2)cc1OCc1ccccc1 | 0.3%
O=C1c2oc3ccc(Cl)cc3c(=O)c2C(c2cccc([N+](=O)[O-])c2)N1Cc1ccccc1 (stereo not given) | i
CC(C)(C)NC(=O)c1ccccc1NC(=O)COc1ccccc1Cl | 3.4%
C=CCn1c(C(NC(=O)c2ccccc2)C(C)C)n[nH]c1=S (stereo not given) | i
COCc1nnc(NC(=O)Nc2ccc(Cl)c(Cl)c2)s1 | 1.4%
O=C(CSc1nnc(Cc2ccccc2)n1-c1ccccc1)Nc1cccc(C(F)(F)F)c1 | i
O=C1CCC(=O)N1CCn1c2ccccc2c2nc3ccccc3nc21 | 0.8%
Cc1sc2ncn(Cc3ccc(Cl)cc3)c(=O)c2c1C | i
Cc1ccc(NS(=O)(=O)c2ccc(NC(=O)C(C)Sc3ccc(Cl)cc3)cc2)c(C)c1 (stereo not given) | 2.4%
Cc1ccccc1OCC(=O)Nc1nc(-c2ccc(F)cc2)cs1 | 0.2%
COc1cccc(CNC(=S)Nc2ccc(OC)cc2OC)c1 | i
CCC(CC)C(=O)Nc1nc(-c2ccc(Br)cc2)cs1 | 1.9%
Cc1cc(Cc2cc(C)c(N)cc2C)c(C)cc1N | 3.0%
CCc1ccc(N2CC(C(=O)Nc3ccccc3OC)CC2=O)cc1 (stereo not given) | i
Cc1cc(C)n(C(=O)CCC2COc3ccccc3O2)n1 (stereo not given) | i
COc1cccc(CNC(=O)C(=O)Nc2ccccc2Cl)c1 | i
COc1cc(NC(=S)NCc2ccc(F)cc2)cc(OC)c1OC | i
OC(c1ccccc1)(c1ccccc1)c1ccnn1-c1ccccc1 | 5.1%

3 neighbouring entries out of the list so far:
mol | Mtb H37Rv
COc1cccc(CNC(=O)C(=O)Nc2ccccc2Cl)c1 | i
COc1cc(NC(=S)NCc2ccc(F)cc2)cc(OC)c1OC | i
OC(c1ccccc1)(c1ccccc1)c1ccnn1-c1ccccc1 | 5.1%

Continuation:
mol | Mtb H37Rv
Nn1cnn2c(SCC(=O)C3CC3)nnc12 | i
Cc1cc(=O)oc2ccc(OCC(=O)Nc3ccc(Cl)cc3)cc12 | i
Nc1ccc(-c2nnc(SCC(=O)N3CCN(c4ccccc4)CC3)n2Cc2ccccc2)cc1 | i
C=CCn1c(SCC(=O)NCc2ccc(C(=O)OCC)cc2)nc2sc(C)c(C)c2c1=O | i
CCOc1ccc(Oc2ccc(-c3cnc4ccccc4n3)cc2[N+](=O)[O-])cc1 | i
COc1cc(OC)cc(C(=O)O/N=C(\N)c2cccc(C)c2)c1 | ?
CCCCOc1cccc(C(=O)NC(=S)Nc2cccnc2)c1 | i
O=C1CCCC2=C1C(c1ccc(O)c(Cl)c1)C1=C(CCCC1=O)N2Cc1ccccc1 | i
CCC(Sc1nnc2c3ccccc3n(CC)c2n1)C(=O)Nc1cccc(C(C)=O)c1 (stereo not given) | i
O=C(NC1CCCCCCC1)c1cccnc1 | i
Cc1ccc(C(C)C)c(OCC(O)CN2CC(C)OC(C)C2)c1 (stereo not given) | i
CCOC(=O)c1ccc(NC(=O)N2CCN(c3cccc(OC)c3)CC2)cc1 | i

Part of the list above, with each value named.
> Cc1cc(=O)oc2ccc(OCC(=O)Nc3ccc(Cl)cc3)cc12
  Mtb H37Rv = i
> COc1ccc(C(=O)COc2cc(C)cc3oc(=O)cc(-c4ccccc4)c23)cc1
  Mtb H37Rv = i

More records follow.
mol | Mtb H37Rv
O=C(NCc1ccccc1Cl)C1COc2ccccc2O1 (stereo not given) | i
O=C(Oc1ccccc1)c1cn(-c2ccccc2)nc1-c1cccnc1 | i
NS(=O)(=O)c1ccc(NC(=S)N2CCC3(CC2)OCCO3)cc1 | i
Cc1ccc(C(C)C)cc1OCCNC(C)C | i
O=C(CCC1CCCCC1)Nc1ccccc1Br | i
Cc1cc(CNC(=O)c2ccc3c(c2)OCO3)nn1C | i
CCOC(=O)c1c(NC(=S)Nc2cnn(CC)c2C(N)=O)sc2c1CCCCCC2 | i
COC(=O)c1sc(NC(=O)c2cc(C)oc2C)nc1C | i
CCCCC(=O)Nc1cccc(NC(=O)c2ccccc2[N+](=O)[O-])c1 | 0.8%
COc1ccc(-c2cc3ccccc3oc2=O)cc1NC(=S)NC(=O)c1ccco1 | i
O=C(Cn1cncn1)c1ccc(F)cc1F | i
COc1cccc(N(CC(=O)Nc2ccc(CC#N)cc2)S(C)(=O)=O)c1 | i
CCC(C)c1ccccc1NC(=O)c1cccc(C)c1[N+](=O)[O-] (stereo not given) | i
Cc1ccccc1CNC(=O)C(=O)Nc1cccc(Cl)c1 | i
C=CCc1cccc(C)c1OCCN1CCOCC1 | 2.3%
CC1CN(S(=O)(=O)N(C)C)CC(C)O1 (stereo not given) | 0.6%
Cc1ccc(N2CC(C(=O)NC3CC3)CC2=O)cc1 (stereo not given) | 0.5%
C=CCNC(=O)CN(Cc1c(F)cccc1Cl)S(=O)(=O)c1ccc(Cl)cc1 | 7.1%
CCc1cc(Br)cc(C)c1NC(=O)CSc1nnc(-c2ccc(Cl)cc2)n1C | i
O=C(COc1ccc([N+](=O)[O-])cc1)Nc1ccccc1-c1ccccc1 | i
Cc1ccc(Cl)cc1NC(=O)c1ccc(-c2ccc(Br)cc2)o1 | i
COc1ccc(C(=O)NC(=S)Nc2ccc(F)cc2F)cc1Br | i
S=c1[nH]nc(C23CC4CC(CC(C4)C2)C3)n1CCc1ccccc1 | 1.7%
CC(C(=O)Nc1nccs1)c1ccc([N+](=O)[O-])cc1 (stereo not given) | i

Other compounds:
| SMILES | Mtb H37Rv |
| --- | --- |
| CC1CCN(c2ncnc3c2sc2nc4c(cc23)COC(C)(C)C4)CC1 | i |
| O=C1c2ccccc2C(=O)N1Cc1nc2ccccc2c(=O)n1-c1ccccc1Cl | i |
| CCOC(=O)c1c(C)c2c(n1C)CCCC2=O | i |
| C=CCOc1cccc(C(=O)NCCN(C)C)c1 | i |
| CCCCOc1ccc(C2NC(=O)NC(C)=C2C(C)=O)cc1OCC (stereo not given) | i |
| COc1cc(Br)cc2cc(C(=O)Nc3ccccc3F)c(=O)oc12 | ? |
| O=C(CSc1nnc(CNC(=O)c2ccccc2F)n1-c1ccccc1)NC1CCCCC1 | i |
| CCc1sc(C(=O)Nc2nccc(C)n2)cc1Br | i |
| CC(C)CCSc1nc(O)cc(=O)[nH]1 | i |
| NC(=O)c1ccccc1NC(=S)NC(=O)c1ccc(Br)o1 | i |
| CCOc1cccc(OCCOCCN2CCCC2)c1 | i |
| O=C(CSc1nnc(Cc2cccs2)n1-c1ccccc1)NCc1ccccc1 | i |
| Cc1ccc(-c2noc(CCC(=O)Nc3ccccc3F)n2)cc1 | i |
| COC(=O)CSc1nc2sc3c(c2c(=O)n1-c1ccccc1C)CCCC3 | i |
| COc1ccc(Cc2nnc(SCC(=O)Nc3ccc(Br)c(C)c3)n2C)cc1 | i |
| CC(C)(Oc1ccc(Cl)cc1)C(=O)Nc1ccc(Nc2ccccc2)cc1 | 20.9% |
| COc1ccc(-c2ccc(CCC(=O)O)n2CCC(=O)O)cc1 | i |
| Cc1ccc(S(=O)(=O)CC(=O)c2ccccc2Br)cc1 | 2.6% |
| CCOC(=O)c1ccc(NC(=O)C2CCN(C(=O)c3ccc([N+](=O)[O-])cc3)CC2)cc1 | 4.0% |
| COc1ccc(OC)c(NC(=O)CC2C(=O)NCCN2C(=O)C(F)(F)F)c1 (stereo not given) | i |
| C=CCNC(=O)c1ccc(N(Cc2ccccc2C)S(C)(=O)=O)cc1 | i |
| COc1cccc(CNCc2ccc(C(F)(F)F)cc2)c1OC | i |
| O=C(Nc1c(Cl)cc(Cl)cc1C(=O)NCCO)c1ccc(Cl)cc1Cl | i |
| CCOc1ccc(Cc2c(C)nc(N)[nH]c2=O)cc1 | 0.0% |
| CC(C)c1ccc(C(=O)NC2C3CC4CC(C3)CC2C4)cc1 (stereo not given) | i |
| O=C(CSc1ccc(Br)cc1)Nc1cccc(Cl)c1 | 1.51µg/mL* |
| O=C(Oc1ccc(-c2nc(-c3ccccn3)no2)cc1)c1ccccc1 | ? |
| Cn1ccc(NC(=S)Nc2cccc(C(F)(F)F)c2)n1 | 17.9% |
| Cc1cc(=O)oc2cc(OCc3nnnn3-c3ccccc3)ccc12 | i |
| COc1cc(OC)c(C=O)cc1Br | i |

The closing six entries of the part above come first, to join the parts.
| SMILES | Mtb H37Rv |
| --- | --- |
| CC(C)c1ccc(C(=O)NC2C3CC4CC(C3)CC2C4)cc1 (stereo not given) | i |
| O=C(CSc1ccc(Br)cc1)Nc1cccc(Cl)c1 | 1.51µg/mL* |
| O=C(Oc1ccc(-c2nc(-c3ccccn3)no2)cc1)c1ccccc1 | ? |
| Cn1ccc(NC(=S)Nc2cccc(C(F)(F)F)c2)n1 | 17.9% |
| Cc1cc(=O)oc2cc(OCc3nnnn3-c3ccccc3)ccc12 | i |
| COc1cc(OC)c(C=O)cc1Br | i |
| COc1cc(C)c(C)cc1S(=O)(=O)NC1CCCC1 | i |
| CC(=O)NCc1ccc(-c2nc3ccccc3s2)cc1 | i |
| COc1ccc(C(=O)N2CCC(C(=O)Nc3ccc(F)c(Cl)c3)CC2)cc1 | i |
| COc1ccc(C2C(Oc3ccccc3C)C(=O)N2c2ccccc2Cl)cc1OC (stereo not given) | i |
| COc1ccc(N(Cc2ccccc2)C(=O)c2nc(S(C)(=O)=O)ncc2Cl)cc1 | i |
| CCC(C)NC(=O)C(=O)Nc1ccccc1 (stereo not given) | i |
| CC(C)(C)CC(C)(C)NS(=O)(=O)c1ccc(F)cc1 | i |
| Cc1ccc(/C=C/C(=O)O)cc1S(=O)(=O)NC1CCS(=O)(=O)C1 (stereo not given) | i |
| Cc1ccc(OCCN2CCNCC2)cc1C | 1.7% |
| Cc1cc(NC(=O)c2ccccc2O)nc(C)n1 | i |
| NC(=O)c1c(NC(=O)CN2C(=O)c3ccccc3S2(=O)=O)sc2c1CCCC2 | i |
| COc1ccc(Br)cc1S(=O)(=O)Oc1ccc(C)cc1C | 7.8% |
| O=C(NCCSC1CCCCC1)c1ccc(Cl)cc1 | i |
| Cc1ccccc1CSCCNC(=O)C(C)Sc1ccccc1 (stereo not given) | i |
| CCCOc1ccc(C(=O)Nc2cccc(-c3nc4ccccc4[nH]3)c2C)cc1 | i |
| COc1ccccc1C(=O)N/C(=C/c1cccc([N+](=O)[O-])c1)C(=O)Nc1cccc(C(=O)O)c1 | 18.6% |
| Cc1nc(SCC(=O)Nc2c(C)n(C)n(-c3ccccc3)c2=O)[nH]c(=O)c1C | i |
| COc1ccc(S(=O)(=O)N2CCN(c3ccc(C)c(C)c3)CC2)c(C)c1C | 2.6% |
| CCn1c(CNC(=O)Cc2ccc(OC)cc2)nnc1SCC(=O)Nc1ccc2ccccc2c1 | i |
| O=C(Nc1ccccc1C(F)(F)F)c1ccc2nccnc2c1 | i |
| COc1ccc(-n2cnc3cc(NCc4ccccn4)ccc32)cc1 | 27.5% |
| CS(=O)(=O)N1CCN(C(=O)c2cc(-c3cccnc3)nc3ccc(Cl)cc23)CC1 | i |
| CC(=O)Nc1ccc(-c2nnc(SCc3ccc(Cl)cc3)n2C)cc1 | 1.7% |
| Cn1c(=O)n(C)c(=O)n(CC(=O)N2CCCCC2)c1=O | i |
| O=S(=O)(c1ccc(N2CCOCC2)cc1)N1CCOCC1 | i |
| CCOC(=O)c1ccccc1NC(=O)CN(c1ccc(CC)cc1)S(=O)(=O)c1ccccc1 | 3.3% |
| O=C1c2ccccc2C(=O)N1CCSc1ncnc2scc(-c3ccc(Cl)cc3)c12 | i |
| CCOc1ccc(-c2cc(C(=O)Nc3ccc(C)cn3)c3ccccc3n2)cc1 | i |
| COc1cccc(C(=O)Oc2ccc(C(=O)Nc3ccccc3)cc2)c1 | i |
| Cc1c(Cl)ccc(S(=O)(=O)NCCN2CCOCC2)c1Cl | i |
| CC(NC(=O)c1ccccc1NC(=O)c1ccc(-c2ccccc2)cc1)C(=O)N1CCCCCC1 (stereo not given) | i |
| Cc1cc(C(=O)NCCC2=CCCCC2)cs1 | 5.5% |
| Cc1cccc(NC(=O)c2ccc(OC(C)C(=O)Nc3ccccc3C(F)(F)F)cc2)c1C (stereo not given) | 27.9% |
| Cc1cc(-c2ccccc2)sc1/C(O)=C/c1nc2ccccc2[nH]c1=O | i |
| Cn1c(=O)c2ncn(CC(=O)Nc3cccc(Cl)c3)c2n(C)c1=O | i |
| COc1cc(C(=O)Nc2cccc3c(NC(=O)c4cc(OC)c(OC)c(OC)c4)cccc23)cc(OC)c1OC | i |
| Cc1ccc(CNS(=O)(=O)c2ccc(Br)s2)cc1 | 10.7% |
| COc1ccc(C(C)C)cc1S(=O)(=O)NCCc1c(C)[nH]c2ccccc12 | 3.3% |
| O=C(O)C1CCC(N2C(=O)C3C4CCC(C4)C3C2=O)CC1 (stereo not given) | i |
| Cc1ccccc1CSCCNC(=O)Nc1ccccc1 | 0.1% |
| CSc1cccc(NC(=O)CN(c2cc(C(F)(F)F)ccc2Cl)S(C)(=O)=O)c1 | i |
| Cc1nn(Cc2cccc(Cl)c2)c(C)c1[N+](=O)[O-] | 2.6% |
| COc1ccc(C(=O)CS(=O)(=O)c2ccc(C)cc2)cc1Br | i |
| CCc1ccccc1NC(=O)CSc1nnc(-c2ccccc2)n1CCOC | i |
| CCN1CCOC(CC(=O)Nc2cc(C)cc(C)c2)C1=O (stereo not given) | 16.7% |
| CCn1cc(C(=O)O)c(=O)c2cc(F)c(N3CCN(S(=O)(=O)c4ccc(NC(C)=O)cc4)CC3)cc21 | 36.6µg/mL* |
